Screening results: PubChem BioAssay, National Center for Advancing Translational Sciences (NCATS)
2A firefly – lowers the firefly signal of an FMDV 2A StopGo reporter | HEK cells with a luciferase reporter of 2A StopGo recoding | Potency, µM (doses to about 57.5 µM), for inactives: at the highest dose signal change, negative = less light | 0.23% of 120,000 active; active = well fitted falling curve with a large enough effect; inconclusive = small, poorly fitted or top-dose-only effect; inactive = no such curve, though single readings can be large or run the other way; also: nearly all actives have a fitted effect of over 60% in size; overnight with compound
2A Renilla – FMDV 2A StopGo reporter, Renilla signal | HEK cells with a luciferase reporter of 2A StopGo recoding | Potency, µM (highest dose often 57.5 µM), for inactives: at the highest dose signal change, negative = less light | 0.32% of 120,000 active | AID 1745857; active means well fitted falling curve with a large enough effect; inconclusive means small, poorly fitted or top-dose-only effect; inactive means no such curve, though single readings can be large or run the other way; also: nearly all actives have a fitted effect of over 55% in size; overnight with compound
* marks the source's active call; other numbers are inactive results; ? = inconclusive; & = joins results of further samples; [ ] = another dose, or the depositor's remark. % is scaled to controls: 0 for no effect and ±100 for the full control effect; potency is read from the fitted curve at half-maximal effect.

canonical_smiles | 2A firefly | 2A Renilla
CCOc1ccc(C2CC(c3ccccc3NS(C)(=O)=O)=NN2C(=O)CC)cc1 (stereo not drawn) | 8.5% | -0.5%
CC(=O)c1cccc(NC(=O)c2n[nH]c(=O)c3ccccc23)c1 | 130.5%[activator] | 6.4%
Oc1ccc(Cl)cc1C1=Nc2ccccc2N=C(c2ccccc2)C1 | 144.2%[activator] | 9.8%
CCCSc1ncc(Cl)c(C(=O)Nc2sc3c(c2C(=O)NCC)CCCC3)n1 | 16.5% | -6.6%
CCc1nnc2c3ccccc3nc(Nc3ccc(F)cc3C)n12 | -2.0% | 4.0%
CCc1ccc(-n2nc(C)c3c(C(=O)Nc4cccc(C(F)(F)F)c4)cc(C)nc32)cc1 | -13.9% | -4.0%
CC(C)NCc1ccc(OCc2ccccc2)cc1 | 0.0% | 2.8%
CCc1ccc2c(c1)c(=O)c(S(=O)(=O)c1ccc(Cl)cc1)cn2CC | -2.3% | 102.2%[activator]
Cc1cc(C)c2c(=O)cc(C(=O)Nc3sc4c(c3C(=O)NCc3ccco3)CCCC4)oc2c1 | 0.0% | -4.8%
O=C(OCCOc1ccccc1Cl)c1ccccc1C(=O)c1ccc(Cl)cc1 | 0.0% | 33.3%[activator]
COc1cc(S(=O)(=O)NCc2ccco2)ccc1NC(C)=O | -11.5% | 81.8%[activator]
COc1cccc(/C=C/c2nc3cc(Cl)ccc3o2)c1 | 213.2%[activator] | 1.0%
COc1ccccc1CCNC(=O)c1ccc(NC(=O)CC2SC(N3CCCC3)=NC2=O)cc1 (stereo not drawn) | 48.6%[activator] | 45.6%[activator]
CCOC(=O)c1ccc(-c2ccccc2)cc1 | 0.0% | 0.6%
N#Cc1ccc(CCC(=O)NCCc2ccccn2)cc1 | -3.3% | 5.8%
CCOC(=O)c1cnc2ccccc2c1Nc1cccc([N+](=O)[O-])c1 | -12.0% | -22.4%
N#CC1(c2ccc(NC(=O)c3ccc(Cl)cc3)cc2)CCCC1 | 25.1% | -3.2%
NC(=O)NC(=O)COC(=O)CCCc1c[nH]c2ccccc12 | 12.1% | 4.2%
CCCn1c(=O)[nH]c(=O)c2c1nc(CN1CCc3ccccc3C1)n2CCOC | -1.2% | -7.8%
CCCCNC(=O)C12CC3CC(C1)CC(c1ccccc1)(C3)C2 | -15.0% | -3.0%
CCCCn1c(=O)n(CC2CCC(C(=O)NCCCOC)CC2)c(=O)c2sccc21 (stereo not drawn) | -5.9% | -3.6%
CCc1ccc(-n2nc(CO)c(C(=O)NCCOC)n2)cc1 | 37.9%[activator] | -14.2%
COc1ccc(-c2c(C)c3ccc(OCC(=O)OC(C)(C)C)cc3oc2=O)cc1OC | ? | ?
O=C(NCc1cccnc1)c1nc(-c2ccc(Br)o2)no1 | 0.0% | 20.9%
CCOc1ccccc1Oc1ncnc2c1oc1ccccc12 | -2.9% | 2.2%
O=c1[nH]c2cc3c(cc2c(=O)n1CCc1nc(-c2cccc(C(F)(F)F)c2)no1)OCO3 | 5.0% | 3.8%
Cc1c(C(=O)N2CCN(c3ccc(F)cc3)CC2)oc2c1C(=O)CC(C)(C)C2 | -7.9% | -13.0%
CCC(=O)NC(c1ccccc1)c1cccs1 (stereo not drawn) | 17.1% | -8.1%[1.06 µM]
CC(=O)c1ccc(NS(=O)(=O)c2cc(-c3cc(C)no3)ccc2C)cc1 | 20.5% | 221.1%[activator]
O=C(CSc1nnc(C2CC2)o1)c1c[nH]c2ccccc12 | 44.0%[activator] | -9.0%
O=C(NCc1ccc2c(c1)OCO2)c1ccc2c(c1)N(Cc1ccccc1F)C(=O)c1ccccc1S2 | -26.1% | 31.6%[activator]
CC(C)Sc1nc2sc3c(c2c(=O)n1Cc1ccccc1)CCCC3 | 0.0% | -7.3%
Cc1ccc(-c2cc(C(=O)O)c3ccc(C)c(C)c3n2)s1 | 9.6%&17.0% | 19.0%&12.4%
Cc1cc2oc(=O)cc(CN3CCN(C)CC3)c2cc1C | 0.6% | -0.3%
COc1ccc(CNC(=O)CS(=O)(=O)Cc2nc(-c3ccccc3C)oc2C)cc1 | -6.3% | 10.4%
CC1CCC/C(=N/NC(=O)c2ccc(Br)o2)C1 (stereo not drawn) | 182.0%[activator] | -4.9%
Cc1cc(N2CCCCC2)nc(Nc2ccc(NC(=O)Cc3ccccc3)cc2)n1 | 14.1µM* | 12.6µM*
Cc1cc(C(=O)OCC(=O)Nc2ccccc2Oc2ccccc2)c2ccccc2n1 | 2.1% | 2.8%
CCOc1ccccc1C(=O)NCC(c1ccc(N(C)C)cc1)N1CCc2ccccc21 (stereo not drawn) | -17.5% | 5.0%
CCC(C)C(=O)Nc1ccc(N2CCCCC2)c2ccncc12 (stereo not drawn) | 7.3% | -6.8%
CCC(C)[C@H](N)c1nnc(SCc2ccc(Cl)c(Cl)c2)o1 (stereo partly drawn) | -9.9% | -12.6%
CC(C)NC(=O)c1ccccc1-c1ncc(-c2ccc(F)cc2)o1 | 19.1% | 0.1%
Cn1c(=O)c2c(ncn2CC(O)COCc2ccccc2F)n(C)c1=O (stereo not drawn) | 8.8% | -1.2%
O=C(CSc1nnnn1-c1ccccc1)N(Cc1ccco1)C1=CCCCC1 | -4.2% | 1.3%
O=C(COc1ccc2ccc(=O)oc2c1)NCc1cccs1 | 0.0% | -4.2%
O=[N+]([O-])c1ccc([As](=O)(O)O)cc1 | 15.5% | 27.1%
Cc1ccc(NC(=O)COC(=O)c2nc(-c3ccccc3)oc2C)c(C)c1 | -6.4% | -8.7%
CCN(CC)CC#CC(OC)(c1ccccc1)C1CCCC1 (stereo not drawn) | -0.1% | -3.3%
FC(F)(F)c1cccc(-n2c(SCc3cccc(Br)c3)nnc2-c2cccnc2)c1 | ? | -6.4%[1.06 µM]
CCc1ccc(Nc2nnc(Cc3ccc(OC)c(OC)c3)c(=O)[nH]2)cc1 | 0.0% | 28.3%
Cc1oc2cc(OCC(=O)N3CCC(C(N)=O)CC3)ccc2c(=O)c1Oc1ccccc1 | -3.1% | -6.4%
CN(C)CCOc1cccc(C(=O)/C=C/c2ccc(C(=O)O)cc2)c1 | 101.1%[activator] | -22.3%
COc1ccc(-c2nnc(SCC(=O)Nc3cc(OC)ccc3OC)nc2-c2ccc(OC)cc2)cc1 | 22.0% | 30.8%[activator]
O=C(NCc1nc2ccccc2[nH]1)c1c(F)cccc1F | 35.9%[activator] | -5.1%
O=C(CSc1nccn1Cc1ccco1)Nc1cccc(F)c1 | 50.5%[activator] | 22.8%
Cc1ccc(OCC(=O)Nc2c(C(=O)c3ccccc3)oc3ccccc23)cc1C | -6.8% | -7.7%
CN(C(=O)Cc1cccs1)C1(C(=O)NC2CCCCC2)CCCCC1 | -0.2% | 30.8%[activator]
Cc1nn2c(C)c(C(=O)NCc3ccc(OC(C)C)cc3)cnc2c1-c1ccc(F)cc1 | -1.8% | -12.1%
COc1cc(C(C)=O)ccc1OCCCN1CCC(c2noc3cc(F)ccc23)CC1 | -8.5%[11.5 µM] | -8.6%
Cc1cc(N/N=C/c2cccnc2)nc(NCc2ccccc2)n1 | 82.5%[activator] | 8.1%

Some values from the list.
Entry for `Cc1ccc(NC(=O)COC(=O)c2nc(-c3ccccc3)oc2C)c(C)c1` in 2A firefly: -6.4%
Entry for `CCN(CC)CC#CC(OC)(c1ccccc1)C1CCCC1` (stereo not drawn) in 2A firefly: -0.1%

Record cards, from the list above.
COc1ccc(-c2nnc(SCC(=O)Nc3cc(OC)ccc3OC)nc2-c2ccc(OC)cc2)cc1 is entered as 2A firefly: 22.0%; 2A Renilla: 30.8%[activator]
Cc1cc(N/N=C/c2cccnc2)nc(NCc2ccccc2)n1 is entered as 2A firefly: 82.5%[activator]; 2A Renilla: 8.1%

Additional structures.
canonical_smiles | 2A firefly | 2A Renilla
CC(C)(CNC(=O)CCc1ncc(-c2ccccc2F)o1)N1CCOCC1 | 16.8% | -9.2%
Cc1ccc(Br)cc1S(=O)(=O)N(C)CCC#N | 2.9% | 1.9%
COc1cccc(CNC(=O)N2CCc3sccc3C2)c1 | 100.4%[activator] | 22.6%
Cc1ccc(NCC(=O)Nc2ccc(CC#N)cc2)c(F)c1 | 6.8% | 8.3%
CN(CC(=O)NCCc1ccccc1)Cc1ccc(C(F)(F)F)cc1 | 26.2% | 2.6%
Cc1cccc(NC(=O)c2ccc3[nH]c(C)c(C)c3c2)c1 | 185.9%[activator] | 0.5%
Cc1nn(CCCC(=O)Nc2ccccc2C(F)(F)F)c(=O)c2c1sc1ccccc12 | -15.5% | 54.4%[activator]
NS(=O)(=O)c1ccc(NC(=O)c2cc(-c3cccs3)nc3ccccc23)cc1 | 7.7% | 17.5%
O=C(NC(Cc1ccccc1)C(=O)N1CCN(c2ncccn2)CC1)c1cccs1 (stereo not drawn) | 15.1% | 98.9%[activator]
O=S(=O)(NCC(c1ccco1)N1CCOCC1)c1ccc(F)cc1 (stereo not drawn) | -21.1% | 4.6%
CN(C)c1ccc(NC(=O)c2cccc3ccccc23)cc1 | 236.3%[activator] | 56.3%[activator]
Cc1ccc(-n2nc(C)c3c(C(F)(F)F)cc(-c4cccnc4)nc32)cc1Cl | -15.9% | 3.4%
COc1ccc(CNCCCSc2nnnn2C)c(OC)c1 | -13.8% | -9.4%
N#CC1(NC(=O)COC(=O)c2nn(Cc3ccccc3)c(=O)c3ccccc23)CCCCC1 | 41.0%[activator] | 0.0%
Cn1ncc2c(Nc3cccc(F)c3)ncnc21 | 0.0% | -9.9%
CCOC(=O)C(=O)NCc1ccccc1 | 10.6% | 3.3%
CCc1cccc(-n2nnc(S(=O)(=O)c3ccc(OC)cc3)c2C)c1 | 16.4% | 24.3%
COc1ccc(CCCc2nnc(SCC(=O)Nc3ccc(C)cc3)o2)cc1C | 8.1%&-14.5% | 7.5%&-10.8%
CCOc1ccc2c(c1)c(=O)c(C(=O)c1ccc(CC)cc1)cn2CC(=O)Nc1cccc(Cl)c1 | -19.8% | -15.5%
O=C(Nc1ccccc1Cc1ccccc1)c1cccc[n+]1[O-] | 25.9% | 12.7%
CC#CC(CCCN(C)Cc1ccccc1)(c1ccccc1)c1ccccc1 | 0.5% | 2.0%
Cc1ccc2oc(C(=O)O)c(C)c2c1 | 13.3% | 3.0%
COc1ccc2c(C)c(CC(=O)Nc3ccc(C(C)=O)cc3)c(=O)oc2c1OC | 23.7% | 7.3%
Clc1ccc(CCC(Cn2ccnc2)Sc2c(Cl)cccc2Cl)cc1 (stereo not drawn) | -7.0%[11.5 µM] | ?
CCn1c(=O)c2cc(C(=O)NCCc3cc(OC)ccc3OC)sc2c2ccccc21 | -21.5% | -8.4%
CC(C)(C)OC(=O)N1CCC(c2c(C(=O)NCCN3CCCC3)cnn2-c2ccc(Cl)cc2)CC1 | -10.3% | -6.3%
CCOC(=O)c1cccc(Nc2cc(-c3ccccc3)ncn2)c1 | -64.5% | ?
Cc1cccc(NC(=O)CSc2nnc(COc3ccc(Cl)cc3)n2Cc2ccco2)c1 | 0.2% | 3.6%
CCc1ccc2[nH]c(C)c(CC(=O)O)c2c1 | 9.5% | 2.4%
CC(C)CCC(=O)NCCCNC(=O)c1cccs1 | 7.5% | 3.9%
Cc1cccc(NC(=O)CCc2ncc(-c3ccc(F)cc3F)o2)c1 | 18.4% | 4.0%
COc1ccc(-c2c(C)oc3cc(OC(=O)N(C)C)ccc3c2=O)cc1 | 0.0% | 9.7%
CCCC(=O)Nc1ccc(C(=O)Nc2cc(C)cc(C)c2)cc1 | 50.5%[activator] | -2.3%
CN(Cc1ccco1)C(=O)c1ccc2c(c1)N(Cc1ccccc1F)C(=O)c1ccccc1S2 | -17.2% | 169.1%[activator]
Cc1oc2cc(OCC(=O)Nc3ccc(O)cc3)ccc2c(=O)c1-c1ccccc1 | 9.0% | -0.7%
Cc1cccc(-c2nc(-c3cc4ccc(C)cc4[nH]c3=O)no2)c1 | 3.3% | 4.1%
O=C(Nc1cc(-c2nc3cc(Cl)ccc3o2)ccc1Cl)c1cccs1 | 13.8% | -3.1%
CCCNC(=O)NC(=O)CSc1ccc2ccccc2n1 | 76.3%[activator] | 72.0%[activator]
Nc1nc(Cl)nc(Nc2cccc(F)c2)c1[N+](=O)[O-] | 10.0% | 12.6%
COc1ccccc1Nc1ncnc2c1nc1n2CCCCC1 | 0.0% | 5.3%
COc1ccc(CC(=O)NC2CC(=O)N(c3ccc(C)c(C)c3)C2)cc1OC (stereo not drawn) | -16.9% | -12.1%
CCCCC(CC)C(=O)NCC(C)(C)CNC(=O)C(CC)CCCC (stereo not drawn) | -11.9% | 0.0%
N#CC1(NC(=O)CSc2ccc3ccccc3n2)CCCC1 | 38.7%[activator] | 4.3%
CC1(C)CCCC(C)(C#CCN2CCN(c3ccccc3)CC2)O1 (stereo not drawn) | ? | ?
COc1ccccc1CNC(=O)c1ccc2nc(N3CCCCC3)sc2c1 | 55.7%[activator] | 14.4%
O=c1cc(-c2ccccc2)nc2cc(-c3ccc(F)cc3)[nH]n12 | 89.7%[activator] | 3.8%
CCC(C)Sc1oc(-c2ccco2)nc1S(=O)(=O)c1ccc(C)cc1 (stereo not drawn) | -12.0% | 171.2%[activator]
